Mtb betalactam: beta-lactam sensitization of Mtb H37Rv; inhibition, % at 25 µM; M. tuberculosis H37Rv growth with meropenem, percent inhibition; hits of this screen are not shown here; hit rate 0.27% among 330,000;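 active = about 74% or more and at least 40 points above the plate without the antibiotic, then above 30% in a dose series; inconclusive = first-round hits that could not be retested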;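 also: growth measured after seven days incubation then overnight dye step; 0% = bacteria only wells and 100% = bacteria with antibiotic; twin plates without the antibiotic show which effects depend on it; some results filed as inactive read as strong as hits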
An asterisk follows results filed as active; ? = inconclusive. Not all compounds are listed; count on the stated rates, not on these rows.

A first look (3 entries):
SMILES	Mtb betalactam
Nn1c(SCC(=O)N2CCOCC2)nnc1-c1cccnc1	-12.4
NC(=O)NC(Cc1ccccc1)C(=O)N1CCN(S(=O)(=O)c2ccc(Cl)cc2)CC1 (centres undefined)	14.9
CC(C)(C)NC(=S)N1CCC(C(=O)c2ccc(F)cc2)CC1	-1.0

The whole of this part, from the first entry:
SMILES	Mtb betalactam
Nn1c(SCC(=O)N2CCOCC2)nnc1-c1cccnc1	-12.4
NC(=O)NC(Cc1ccccc1)C(=O)N1CCN(S(=O)(=O)c2ccc(Cl)cc2)CC1 (centres undefined)	14.9
CC(C)(C)NC(=S)N1CCC(C(=O)c2ccc(F)cc2)CC1	-1.0
O=C(NCCc1cnccn1)C1CCC(=O)N(Cc2ccc(Cl)cc2)C1 (centres undefined)	-8.8
COc1ccc(C(=O)NCC(c2ccccc2)N2CCCC2)cc1S(=O)(=O)N1CCOCC1 (centres undefined)	1.9
CCN(CC(=O)Nc1ccc2c(c1)OCCO2)CC(=O)Nc1ccc(C)c(S(=O)(=O)N(C)C)c1	0.2
N#Cc1ccccc1NC(=O)COC(=O)/C=C/c1ccc(S(=O)(=O)N2CCOCC2)cc1	6.9
COc1ccc(N(CC(=O)NCc2ccc(F)cc2)C(=O)c2snc(C(N)=O)c2N)cc1OC	3.9
CCOC(=O)C1=CC[C@H]2c3c(c4ccccc4n3C)C(=O)C1N2C(=O)OC(C)(C)C	5.1
COC(=O)[C@]1(Cc2ccccc2)N[C@H](CN(C)C(=O)c2ccc(C)cc2)[C@@H]2C(=O)N(C)C(=O)[C@@H]21	0.7
N#Cc1nc(Nc2cc(F)cc(F)c2)c2ncn(CC(F)F)c2n1	5.7
CC(C)=C[C@@H]1C[C@H](C)[C@H]2CC[C@H](C)c3c(O[C@@H]4O[C@@H](C)[C@@H](O)[C@@H](O)[C@@H]4O)c(O)c(C)c1c32	6.0
C[C@H]1CN([C@@H](C)CO)C(=O)c2cc(NC(=O)CCN3CCOCC3)ccc2O[C@H]1CN(C)C(=O)Nc1ccc(F)cc1	1.4
CC(=O)Nc1cccc(C(=O)NNC(=O)c2ccccc2-n2cccc2)c1	-4.7
Cc1nc(SCc2nc3c([N+](=O)[O-])cccc3[nH]2)c2oc3ccccc3c2n1	2.6
COc1cccc(NC(=O)CN(C)C(=O)Cc2c(C)nc3ccccc3c2C)c1	-0.5
O=C(c1ccco1)N1CCN(Cc2nnc(-c3cccc(Br)c3)o2)CC1	4.8
COc1ccc(S(=O)(=O)N2CCC(C(=O)NN3CCCCC3)CC2)cc1OC	-2.4
CCC1(CC)NC(=O)N(CC(=O)OCC(=O)Nc2ccc(OC(F)(F)F)cc2)C1=O	5.9
C#CCOCCOCCOCCNc1nc(N2CCN(C(=O)CCCCCCCCCCNC(=O)[C@H](CCCCN)n3cc(CCO)nn3)CC2)nc(N2CCN(C(=O)CCCCCCCCCCNC(=O)[C@@H]([C@H](C)O)n3cc(C)nn3)CC2)n1	22.8

An excerpt of the results above, as a working copy:
SMILES	Mtb betalactam
Cc1nc(SCc2nc3c([N+](=O)[O-])cccc3[nH]2)c2oc3ccccc3c2n1	2.6
COc1cccc(NC(=O)CN(C)C(=O)Cc2c(C)nc3ccccc3c2C)c1	-0.5
O=C(c1ccco1)N1CCN(Cc2nnc(-c3cccc(Br)c3)o2)CC1	4.8
COc1ccc(S(=O)(=O)N2CCC(C(=O)NN3CCCCC3)CC2)cc1OC	-2.4
CCC1(CC)NC(=O)N(CC(=O)OCC(=O)Nc2ccc(OC(F)(F)F)cc2)C1=O	5.9

Given as labelled records: part of the list above
CC(=O)Nc1cccc(C(=O)NNC(=O)c2ccccc2-n2cccc2)c1
  Mtb betalactam: -4.7
COc1ccc(S(=O)(=O)N2CCC(C(=O)NN3CCCCC3)CC2)cc1OC
  Mtb betalactam: -2.4

Next part
SMILES	Mtb betalactam
CC(=O)c1c(C)[nH]c(C(=O)CN2CCN(S(=O)(=O)c3ccccc3)CC2)c1C	-1.3
O=C(CCC(=O)c1cccs1)OCc1ccc([N+](=O)[O-])cc1	-8.6
O=C(NC(=S)NC1CCCCC1)c1ccccc1	?
Oc1cc(-c2ccncc2)cc2cccnc12	89.8
C[C@H](CO)N1C[C@H](C)[C@@H](CN(C)S(=O)(=O)c2cccs2)Oc2c(NC(=O)Nc3ccc4c(c3)OCO4)cccc2C1=O	1.6
Cc1ccc(C(=O)N2CCc3ccccc32)cc1[N+](=O)[O-]	-9.6
O=C(NN=Cc1ccc(N2CCOCC2)cc1)c1cc2ccccc2cc1O	1.1
O=C(COc1cccc(Cl)c1Cl)NC1CC1	-2.2
Cc1ccc(C(=O)OCC(=O)Nc2ccc3c(c2)OCO3)c(O)c1	-6.5
CN(CCCC(=O)NCc1ccccc1)S(=O)(=O)c1ccc([N+](=O)[O-])cc1	-5.3
Cn1c(=O)c2c(ncn2CC(=O)Nc2cc(S(=O)(=O)N3CCCCC3)ccc2Cl)n(C)c1=O	-3.3
C[C@H](CO)N1C[C@H](C)[C@@H](CN(C)C(=O)Nc2ccccc2)Oc2c(NC(=O)c3ccncc3)cccc2C1=O	-4.2
CN(c1ccccc1)S(=O)(=O)c1ccc(C(=O)NNC(=O)c2ccccc2F)cc1	5.7
Cc1ccc(NC(=O)CN(C)S(=O)(=O)c2ccc(Cl)s2)c(O)c1	-1.1
C#CCOCCOCCOCCNc1nc(N2CCN(C(=O)Cn3cc(CCCN=C(N)N)nn3)CC2)nc(N2CCN(C(=O)[C@H]([C@@H](C)O)n3cc(CCCCN)nn3)CC2)n1	-2.6
COc1ccc(N2CCN(C(=S)Nc3ccccc3OC)CC2)cc1	5.8
CN(Cc1nc2ccccc2c(=O)[nH]1)C(=O)c1cccc(S(=O)(=O)N2CCc3ccccc32)c1	-1.4
Cc1c(C(=O)Nc2ccc(S(=O)(=O)Nc3ncccn3)cc2)oc2ccccc12	-5.4
C#CCOCCOCCOCCNc1nc(N2CCN(C(=O)[C@H](CCCN=C(N)N)n3cc(C(N)[C@@H](C)CC)nn3)CC2)nc(N2CCN(C(=O)[C@H](CCCCN)n3cc([C@@H](N)CC(N)=O)nn3)CC2)n1 (some centres undefined)	11.3
CSc1ncc(C(=O)Nc2cccc(S(N)(=O)=O)c2)n1-c1ccccc1	2.3
COc1ccc(CN(CC(=O)NC2CCCC2)C(=O)CCC(=O)Nc2nccs2)cc1	-0.4
O=C1CN(C(=O)CSc2nnnn2C2CC2)c2ccccc2N1	8.1
COc1ccc(Cl)cc1NC(=O)COC(=O)Cc1cc(OC)c(OC)c(OC)c1	0.0
NC(=O)c1nsc(C(=O)N(CC(=O)NC2CCCCC2)Cc2ccc(F)cc2)c1N	-5.6
COc1ccc(NC(=O)CCNC(=O)c2ccco2)c(OC)c1	-8.4
Fc1c(F)c(F)c(SCn2cc(Br)cn2)c(F)c1F	-7.1
C[C@H](CO)N1C[C@H](C)[C@@H](CN(C)C(=O)NC2CCCCC2)Oc2c(NS(=O)(=O)c3cccs3)cccc2C1=O	2.7
CN(C(=O)c1cccc(NC(=O)C2CCCN(C(=O)OC(C)(C)C)C2)c1)C1CCC1 (centres undefined)	10.1
NC(=O)c1ccc(Cn2c(C(=O)c3cc(Cl)c(N)c(Cl)c3)c3ccccc3[n+]2[O-])cc1	0.8
COCC(=O)Nc1c(I)c(C(=O)NCC(O)CO)c(I)c(C(=O)N(C)CC(O)CO)c1I (centres undefined)	1.2
CCCCn1c(N)c(N(CC(C)C)C(=O)CSCC(=O)Nc2ccc(C)cc2)c(=O)[nH]c1=O	2.8
COc1ccc(CCC(=O)OCC(=O)Nc2sccc2C(N)=O)cc1OC	-2.8
CC(=O)Nc1ccc(S(=O)(=O)N(C)CC(=O)N(C)Cc2sccc2C)cc1	1.8
CCOc1ccc(OCCCC(=O)N(C)CC(=O)Nc2ccccc2Br)cc1	-8.8
CN(Cc1ccccc1)C(=O)c1nc[nH]c1C(=O)N1CCN(C(=O)OC(C)(C)C)CC1	8.4
O=S(=O)(c1ccc2c(c1)CCN2)N1CCCC1	-1.4
Cc1ccc(S(=O)(=O)N2CCC[C@H]2C(=O)OCC(=O)N2CCc3ccccc32)cc1	-2.8
CCOC(=O)c1cccc(N2CC3CNC(=O)C2(C(=O)OC)N3C)c1 (centres undefined)	7.8
CC(C)CN(C(=O)C1COc2ccccc2O1)c1c(N)n(CC(C)C)c(=O)[nH]c1=O (centres undefined)	4.5
Cc1cccc(C(C)C)c1NC(=O)CSc1ncnc2[nH]ncc12	-0.8
O=C(Nc1ccc(C(=O)N2CCC(N3CCOCC3)CC2)cc1)c1ccc(Br)o1	-3.9
CCN(Cc1nc2ccccc2c(=O)[nH]1)C(=O)c1ccc(C)c(NC(=O)c2ccco2)c1	1.8
C=CC[C@@H](CC(=O)OC(C)(C)C)C(=O)OC[C@H]1CCCN1C(=O)[C@@H](CC=C)CC(=O)NCCO	3.4
CCC(CCCO)CCC[C@H](C)CCC1OCCO1 (some centres undefined)	7.1
O=C(CN1C(=O)NC2(CCCc3ccccc32)C1=O)Nc1ccccc1OC(F)F (centres undefined)	-2.0
O=C(Nc1ccc(S(=O)(=O)Nc2nccs2)cc1)c1ccccc1OC(F)F	5.8
COc1ccc(S(=O)(=O)N2CCCCC2)cc1NC(=O)CN1C(=O)NC(C)(C2CC2)C1=O (centres undefined)	-6.3
Cc1n[nH]c(=O)c2c(NC(=O)CSc3nnc(-c4ccco4)n3C)oc(C)c12	-1.7
O=C(OCC(=O)N1CCc2ccccc2C1)c1ccc(O)cc1	-3.7
CC(C)n1nc(C(=O)Nc2cccc(S(=O)(=O)N3CCOCC3)c2)c2ccccc2c1=O	-2.4
CC#CCOC(=O)c1c(C)nc2sc3c(c2c1N)CCC(O)C3 (centres undefined)	3.7
CC(Sc1nnc(C2CC2)n1C1CC1)C(=O)Nc1ccc(C(N)=O)cc1 (centres undefined)	0.9
C#CCOCCOCCOCCNc1nc(N2CCN(C(=O)CCCCCCCCCCNC(=O)[C@H]([C@@H](C)CC)n3cc(CCCCN=C(N)N)nn3)CC2)nc(N2CCN(C(=O)CCCCCCCCCCNC(=O)[C@H]([C@@H](C)CC)n3cc(CCCCN=C(N)N)nn3)CC2)n1	-2.8
CC(Sc1nc2ccccc2c(=O)n1CC1CCCO1)C(=O)N(C)c1ccccc1 (centres undefined)	-0.6
O=C(N/N=C/c1cccc(OCc2ccccc2)c1)c1ccc(Br)o1	?
O=C(NCCCN1CCOCC1)c1cn(-c2ccccc2)nc1-c1ccc(F)cc1	-2.0
CC(C)(CNC(=O)c1cccs1)N1CCOCC1	2.3
CC(C(=O)N1CCCC1)N(C)CC(=O)Nc1cccc(F)c1 (centres undefined)	-5.7
NS(=O)(=O)c1cccc(NC(=O)CSc2nnc(-c3ccccc3)o2)c1	-2.1
O=C(NCC(c1ccccc1Cl)N1CCCC1)C1CCN(C(=O)Nc2ccccc2)CC1 (centres undefined)	-6.1

Other structures:
SMILES	Mtb betalactam
COc1cc(CCN)ccc1O	-4.8
Cc1nn(C)c(C(=O)N/N=C/c2cccc(Oc3ccccc3)c2)c1Br	?
C[C@@]12C(=O)N(Cc3ccccc3)CC(=O)N1[C@H]1c3ccccc3OC[C@@H]1[C@@H]2c1ccccc1	7.7
COc1ccc(NC(=O)COC(=O)c2ccc3c(c2)OCCO3)cc1OC	1.0
C[C@@H](NC(=O)Cn1cnc2c(OCc3ccccc3)ncnc21)c1cccc2ccccc12	-2.6
O=C1NC(=O)C(c2cccs2)(c2cccs2)N1	4.3
O=C(COC(=O)c1ccccc1O)NC1CCCc2ccccc21 (centres undefined)	3.4
CC(=O)c1cccc(S(=O)(=O)Nc2cc(C(F)(F)F)ccc2N2CCOCC2)c1	1.6
Cc1cc(C)c(C)c(S(=O)(=O)N2CCN(C(=O)c3ccccn3)CC2)c1C	16.1
Nc1c(C(=O)CSc2nc3ccccc3o2)c(=O)[nH]c(=O)n1C1CC1	-8.2
Cc1ccc(C)c(NC(=O)COC(=O)c2ccc3ccccc3n2)c1	-5.0
Cc1ccc(NC(=O)COC(=O)c2ccc(S(=O)(=O)N3CCCCC3)cc2)cc1	1.2
Cc1ccc(C(=O)CCC(=O)OCC(=O)Nc2ccccc2SCC#N)cc1	0.4
COc1ccc(C(=O)NCc2cccnc2)cc1C(=O)NCc1cccnc1	-0.9
Cc1ccc(C(=O)N(C)CC(=O)Nc2ccc(Cl)c(C(F)(F)F)c2)cc1S(=O)(=O)N1CCCCC1	-1.5
O=C(Nc1cc(F)ccc1F)C1CCN(S(=O)(=O)c2cccc3nonc23)CC1	-4.0
CCCCNc1c(-c2ccc(SC(C)CC)cc2)nc2cnccn12 (centres undefined)	100.2
O=S(=O)(c1ccc(F)cc1)N1CCN(C(=S)NC2CC2)CC1	-8.0
COc1ccc(C(=O)NC(C(=O)OCC(=O)Nc2sccc2C(N)=O)C(C)C)cc1 (centres undefined)	4.7
CN(C)S(=O)(=O)c1cccc(NC(=O)c2cccc(S(=O)(=O)N3CCc4ccccc43)c2)c1	-0.7
COc1ncc(C2=CC(=O)CC(C)(C)C2)cn1	-0.5
COc1cc(NC(=O)CSc2nc3[nH]c(=O)cc(O)c3s2)cc(OC)c1OC	-15.2
C[C@]12CCC3C(CC[C@H]4C[C@H](O)CC[C@]34C)C1C[C@@H](CCCCl)[C@@H]2O (some centres undefined)	4.0
O=C(CCl)Nc1ccc(S(=O)(=O)NC2=NCCCCC2)cc1	36.0
O=C(COC(=O)/C=C/c1ccccc1)Nc1ccc2c(c1)OCCO2	4.6
O=C(Cn1c(=O)oc2ccccc21)Nc1ccc(Cl)cc1	3.5
Cc1cc(=O)oc2cc(NC(=O)COc3cccc(C(F)(F)F)c3)ccc12	1.0
CCCN(C(=O)CSc1nnc2ccccn12)C1CCS(=O)(=O)C1 (centres undefined)	-0.8
CCN(CC)C(=O)c1ccc(NC(=O)COc2ccc(-c3nn(C)c(=O)c4ccccc34)cc2)cc1	-2.0
CCCCC(=O)NC(c1ccc(N(C)C)cc1)c1ccc2cccnc2c1O (centres undefined)	-0.3
NS(=O)(=O)c1cc(C(=O)OCC(=O)Nc2ccc3[nH]c(=O)[nH]c3c2)ccc1Cl	-4.4
CC(C)(C)c1ccc(-c2noc(CNC(=O)c3ccco3)n2)cc1	0.4
O=C(NC1CCS(=O)(=O)C1)c1ccc(Br)s1 (centres undefined)	-5.0
c1ccc(NC2=NCCN2CC2CCCCC2)cc1	-3.3

Source: PubChem BioAssay (Southern Research Specialized Biocontainment Screening Center)
